# Bioassay records (PubChem)
# D2 agonist: human D2 receptor agonism in beta-arrestin assay | P14416 | DiscoveRx PathHunter D2 beta-arrestin, luminescence, 90 min; 100% = 57 uM dopamine signal | activation, % (no concentration beside the values) | hit rate 0.084% among 360,000; in the data active = activation above about 40%; inconclusive = about 15% to 40%; inactive = below about 15%; also: compound concentration not given in the record; the text of the record calls up to 30% inactive
# Target sequence (P14416 whole entry, looked up): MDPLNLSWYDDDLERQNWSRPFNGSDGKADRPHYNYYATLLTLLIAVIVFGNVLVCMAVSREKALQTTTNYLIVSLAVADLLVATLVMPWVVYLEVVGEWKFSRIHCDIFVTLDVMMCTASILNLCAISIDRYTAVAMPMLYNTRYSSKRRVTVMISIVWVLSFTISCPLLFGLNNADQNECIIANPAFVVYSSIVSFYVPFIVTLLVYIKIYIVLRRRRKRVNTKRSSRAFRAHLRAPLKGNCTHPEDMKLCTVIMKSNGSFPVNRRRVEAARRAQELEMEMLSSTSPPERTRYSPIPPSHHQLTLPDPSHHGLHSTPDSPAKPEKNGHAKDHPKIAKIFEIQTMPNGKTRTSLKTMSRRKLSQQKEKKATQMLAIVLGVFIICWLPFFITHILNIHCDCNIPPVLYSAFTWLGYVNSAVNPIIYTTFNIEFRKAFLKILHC
#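 Agonist mode: compounds alone added to overnight-plated D2 PathHunter cells for 90 min at 37 C, with 57 uM final dopamine (EC100) defining full response. Beta-arrestin recruitment detected by chemiluminescent reagent, read after 1 h at ambient temperature.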
# Six1-Eya2 inh: blocks human Six1 binding to Eya2 | Q15475+O00167 | AlphaScreen GST-Six1/His-Eya2 binding, biochemical; active compounds read low; control for the full effect not named in the record | activity change, % (test concentration not listed) | hit rate 0.56% among 360,000; in the data active = activity change below about -65%; inconclusive = about -30% to -65%; inactive = above about -30%; also: % is scaled to controls: 0 for no effect and ±100 for the full control effect
#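 Homogeneous AlphaScreen proximity assay pairing GST-Six1 with His-tagged Eya2 (added as 5X mix: 250 nM and 500 nM) in 50 mM Tris pH 8.0, 300 mM NaCl, 1 mM TCEP. Glutathione donor and nickel acceptor beads; 1 h, 37 °C, dark.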
# gsp ag: agonists of gsp mutant (McCune-Albright syndrome); gsp mutant cells, cAMP HTRF, 30 min; control for the full effect not named in the record; Potency, µM (titrated, usually from 76.9 µM), without a hit: at the top dose activation (cAMP increase), usual class: activators; hit rate 0.13% among 340,000; active = well fitted activation curve with a large enough effect; inconclusive = small, poorly fitted or top-dose-only effect, or another doubt; inactive = no such curve, though single readings can be large or run the other way; cell line not stated here;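 also: phosphodiesterase inhibitor Ro 20-1724 added with compounds to block cAMP breakdown; potency is read from the fitted curve at half-maximal effect; nearly all actives have a fitted effect of over 60% in size; about a fifth of the inactives were tested at one dose only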
#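 Cells stably selected in G418 were plated at 2000/well, grown 16-24 hr, then given compounds in DMSO with the PDE inhibitor […] (300 uM solution added) for 30 min at 37C; cAMP was read by HTRF.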
# CtBP-E1A blk: blocks the CtBP interaction with E1A; activity change, % (test concentration not listed); hit rate 0.49% among 340,000; AlphaScreen GST-E1A/His-CtBP binding, 1536-well; active compounds read low; control for the full effect not named in the record; in the data active means activity change below about -65%; inconclusive means about -30% to -65%; inactive means above about -30%; also: % is scaled to controls: 0 for no effect and ±100 for the full control effect
#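 Steps: dispense buffer (Tris pH 8.0, NaCl 300 mM, TCEP 1 mM, BSA, Tween 20); add 5X protein mix (GST-E1A, His-CtBP, 125 nM each); pin 23 nL compound; 2 h at 37 °C, dark; add 5X beads (50 ug/mL); 1 h; read.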
# gsp antag: antagonizes gsp, the McCune-Albright syndrome mutation. Potency, µM (highest dose often 76.9 µM), for inactives: top-dose activity change, negative = inhibition, hits mostly inhibitors. gsp-mutant cells, cAMP HTRF, 30 min; control for the full effect not named in the record. hit rate 0.4% among 340,000; active = falling curve of any shape with a large fitted effect; inconclusive = falling curve, mostly with a smaller effect; inactive = flat or rising curve; cell line not stated here;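 also: intracellular cAMP measured with PDE inhibitor Ro 20-1724 present during compound exposure; potency is read from the fitted curve at half-maximal effect; % is scaled to controls: 0 for no effect and ±100 for the full control effect; nearly all actives have a fitted effect of over 65% in size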
#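 Cells in G418 medium, seeded 16-24 h, 37C; buffer exchange to DPBS + 1 mM CaCl2, 0.5 mM MgCl2, 0.05% BSA; cpds in DMSO + […] (300 uM stock), 30 min 37C; HTRF cAMP detection.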
# D2 PAM: potentiates the human D2 dopamine receptor allosterically; P14416; DiscoveRx D2 beta-arrestin cells, luminescence, 90 min; 100% = 57 uM dopamine signal; potentiation, % (concentration not given with the values); hit rate 0.23% among 360,000; AID 624464; active = potentiation of 50% or more; inconclusive = 30% to 50%; inactive = 30% or less;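 also: compound concentration not given in the record; tested on top of an EC20 dose of dopamine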
#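 D2 cells co-treated with compound plus 50 nM dopamine (EC20) for 90 min at 37 deg C to detect potentiation. Beta-arrestin recruitment was read as enzyme-fragment luminescence after 1 h at ambient temperature. Full response was set by 57 uM dopamine.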
# The depositor's hits bear a star; u = inconclusive; x = not tested or not shown; [ ] = another dose, or the depositor's remark.
SMILES,D2 agonist,Six1-Eya2 inh,gsp ag,CtBP-E1A blk,gsp antag,D2 PAM
CC(O)C(NS(=O)(=O)c1ccc(Cl)cc1)C(=O)OCCOc1ccc(F)cc1 (configuration not stated),2.4,4,-72%[inhibitor],5,x,-9
Cc1nc2cc(-c3cccc(F)c3)nn2c(C)c1CCC(=O)NC(C)c1ccc2c(c1)OCCO2 (configuration not stated),-1.0,-3,1%,-7,u,-4
CCc1nc2c3cnn(-c4cc(Cl)ccc4C)c3ncn2n1,-0.1,10,9%,-1,4%,8
CCOc1ccccc1C=C1SC(=S)NC1=O,0.1,0,-3%,-22,-32%,-7
C=CCNC(=S)NNc1nc(N2CCCC2)nc(N2CCCC2)n1,-3.9,0,10%,x,7%,-31
Cc1nnc(NC(=O)CSc2nnc(NC(=O)C(C)(C)C)s2)s1,-1.8,8,-20%,x,3%,-9
COC(=O)CCC(NC(=O)c1cc(C)oc1C)C(=O)OC (configuration not stated),0.0,2,-2%,8,4%,u
CC(C)(C)NC(=O)COC(=O)c1ccc(S(=O)(=O)N2CCCCCC2)cc1,-3.8,2,-15%,3,-17%,-4
CCOC1(OCC)C(c2ccc(N)cc2)C(C#N)(C#N)C1(OCC)OCC (configuration not stated),-2.9,0,-45%[inhibitor],-1,-2%,-8
CCc1nnc(NC(=O)c2ccco2)s1,-2.3,-8,5%,0,x,-7
c1csc(-n2nc3ccccc3n2)c1,3.8,1,11%,4,-16%,8
CCOC(=O)c1sc2nccc(N(C)C)c2c1N=CNOCc1c(F)cccc1Cl,-2.9,40,1%,44,6%,-22
N#Cc1ccccc1Cn1c(=O)oc2ccccc21,-1.2,3,17%,6,1%,0
CC1=NN(C(=O)Cc2ccc([N+](=O)[O-])cc2)C(O)(C(F)(F)C(F)(F)F)C1 (configuration not stated),-5.5,1,-11%,x,4%,0
c1ccc2c(c1)C(=NCC1CCCO1)NC2=NCC1CCCO1 (configuration not stated),-2.2,3,-40%[inhibitor],6,-3%,-19
O=C(O)C1CCCN1C(=O)Nc1ccccc1 (configuration not stated),-1.3,-3,-6%,-2,6%,-32
Cc1ccc(S(=O)(=O)NCCNc2ccc(Br)c(C)c2)cc1,0.0,-5,0%,x,-4%,5
COc1ccc(CCNC(=O)CSc2ccc3nnc(CCNC(=O)c4ccc(C)cc4)n3n2)cc1OC,-2.1,1,u,1,5%,-4
O=C(C1=C[C@@H](C2CC2)C[C@@H](OCCCCO)O1)N1CCN(Cc2ccccc2)CC1,-4.2,2,x,-20,5%,-7
CCOC(=O)C1CN(S(=O)(=O)c2ccccc2)CCN1S(=O)(=O)c1ccccc1 (configuration not stated),-0.5,6,u,2,-7%,7
Cc1ccccc1CNC(=O)c1ccccc1C(=O)O,-6.9,2,20%,6,19%,3
O=C1CCCC2=C1CC(C(=O)OCc1ccccc1)C(=O)N2Cc1ccccc1 (configuration not stated),3.7,-4,x,-17,-6%,3
O=C(CNC(=O)c1ccco1)OCC(=O)c1ccc(Cl)cc1Cl,-14,12,6%[15.4 µM],10,0%,-26
COc1ccc(N2CC(C(=O)N/N=C/c3cc([N+](=O)[O-])ccc3O)CC2=O)cc1 (configuration not stated),-9.6,-90*,0%,-77*,-4%,-6
CCOC(=O)c1sc(NC(=O)/C=C/c2ccccc2)nc1C,-4.3,4,31%,-1,6%,-5
COc1ccc(C(=O)COC(=O)CCc2nc3ccccc3[nH]c2=O)cc1Br,1.2,-7,-2%[15.4 µM],x,-5%,0
O=C(Nc1ccc2ccccc2n1)c1ccccc1Br,-2.9,3,1%,1,-1%,-4
C=CCNc1nnc(Cl)c2ccccc12,-0.6,-7,10%,-6,12%,-1
Cc1nn(Cc2c(F)c(F)c(F)c(F)c2F)c(C)c1NC(=O)c1cccc(COc2ccccc2Cl)c1,-3.0,11,u,11,2%,-1
O=C(COC(=O)c1ccc(Cl)cc1)NC1CCCCCC1,1.9,0,-2%,4,18%,-3
COc1ccccc1CCNC(=O)c1ccc(NC(=O)CC2SC(N3CCCCC3)=NC2=O)cc1 (configuration not stated),3.5,-7,-2%,x,-12%,-1
COc1ccccc1CC(=O)Nc1ccc(OC)c(OC)c1,0.3,2,u,0,2%,9
Cc1cccc(C)c1NC(=O)Cn1nc(C)n2cccc2c1=O,0.6,5,0%,x,9%,-2
O=C(Nc1ccnn1C1CCN(Cc2ccccc2OCCO)CC1)c1cccc(F)c1,-0.2,8,-49%[inhibitor],1,8%,-33
CCCc1nnc(NC(=O)CCC(=O)O)s1,-8.4,-6,-15%,0,1%,-12
Cc1ccc(-c2csc3ncnc(NCCC(=O)O)c23)cc1,-4.8,-7,u,-10,-15%,-2
O=C(CC1Sc2ccccc2NC1=O)Nc1cccc(-c2nnc3n2CCCCC3)c1 (configuration not stated),-2.7,-4,-36%,1,-10%,-6
O=C(Nc1ccc(F)cc1F)c1c(C(F)(F)F)ccnc1Oc1cccc(C(F)(F)F)c1,-2.5,11,22%[15.4 µM],7,3%,-10
O=C(Nc1ccc([N+](=O)[O-])cc1)Nc1ccc2[nH]c(=O)[nH]c2c1,-6.8,-16,-1%[15.4 µM],-12,12%,-9
CO/N=C/NC(=O)NOCc1ncc(C(F)(F)F)cc1Cl,-0.9,7,18%,0,8%,7
COCOCCn1cc(CN2CCS(=O)(=O)N(Cc3ccc(-c4cccc(CO)c4)cc3)C(C(C)C)C2=O)nn1 (configuration not stated),-8.0,2,20%,2,x,-1
O=C(CN1C(=O)c2ccccc2C1=O)Nc1ccc2c(c1)OCO2,0.0,0,5%,4,-5%,-2
Cc1ccc(C(=O)Nc2nc(=O)n(C(=O)c3ccccc3Cl)s2)cc1,-1.8,9,-2%,-2,2%,-1
Cc1cccc(N(CC(=O)NCC2CCCO2)C(=O)CCC(=O)Nc2nccs2)c1 (configuration not stated),-5.1,4,-2%[15.4 µM],-1,8%,-10
CCOC(=O)C1CCCN(C(=O)Cn2cnc3sc(C)c(S(=O)(=O)N4CCOCC4)c3c2=O)C1 (configuration not stated),-2.8,12,5%[15.4 µM],-10,1%,-5
Cc1ccccc1NC(=O)COC(=O)C1(C)CC1(Cl)Cl (configuration not stated),-0.5,6,1%[15.4 µM],0,x,0
c1cnc2c(OCc3nc4ccccc4[nH]3)cccc2c1,-5.3,2,9%,11,3%,-18
CCCCCSc1nc(C)c(CC(=O)O)c(=O)[nH]1,-3.6,5,1%,7,12%,4
O=C(CCc1nnc2ccc(N3CCCC3)nn12)Nc1ccc(F)c(F)c1,1.5,6,6%,2,-2%,-4
O=C(/C=C/c1ccc(S(=O)(=O)N2CCOCC2)cc1)NCc1ccccc1Cl,-1.3,-2,-78%[inhibitor],0,-13%,-10
COc1cccc(NC(=O)CSc2nc3ccccc3c(=O)n2CCCC(=O)NCCCN2CCOCC2)c1,-0.1,8,14%[15.4 µM],3,u,-3
CCCc1n[nH]c2c1/C(=N/O)CC(c1ccccc1)C2 (configuration not stated),-3.7,-6,-35%[inhibitor],7,5%,1
O=C(CCNC(=O)c1ccc(Br)o1)NCc1ccccn1,1.6,-5,8%,-17,5%,-1
CC(Sc1nc2ccccc2c(=O)n1C)C(=O)Nc1ccc2c(c1)OCCO2 (configuration not stated),-3.2,0,-15%,-8,u,-1
O=C(NCCc1ccccc1)c1nc2c(nnn2Cc2ccccc2Cl)c(=O)[nH]1,0.3,-3,14%,-4,40µM*,5
COCCn1c(=S)[nH]c2sc3c(c2c1=O)CCCC3,9.8,0,u,-3,-2%,-2
OCCC1CN(Cc2nc(-c3ccccc3)cs2)CCN1Cc1ccc(F)cc1 (configuration not stated),-4.5,-17,-5%[15.4 µM],4,10%,-18
CSc1ncccc1C(=O)OCC(=O)NC1CCCc2ccccc21 (configuration not stated),0.4,1,11%,0,0%,-12
CC(C)N(CCCNC(=O)c1nn(C)c2c1CS(=O)(=O)c1ccccc1-2)Cc1ccccc1,-5.0,31,u,0,8%,-30
O=C(Nc1ccccn1)c1csc2c1CCCC2,-2.8,11,5%,-1,-1%,-6

# Next part.
SMILES,D2 agonist,Six1-Eya2 inh,gsp ag,CtBP-E1A blk,gsp antag,D2 PAM
O=C(/C(Br)=C/Nc1cc(Cl)ccc1Cl)C(F)(F)F,-0.2,-2,-67%[inhibitor],1,19%,-14
COc1ccc(/C=C/C(=O)OC2CCCN(C)C2)cc1 (configuration not stated),0.0,-1,0%,7,-10%,-4
CCN1C(C)=CC(=O)[C@@H](O)[C@H]1c1ccccc1Br,-3.1,0,x,-1,6%,-6
CC1(C(=O)Nc2cccnc2)Cc2c(-c3ccc4c(c3)OCO4)ccnc2O1 (configuration not stated),-1.8,-13,x,-5,x,-16
COc1cc2c(cc1OC)-c1nnc(-c3ccco3)n1C1(CCCC1)C2,-1.4,-4,-13%,-6,-8%,-5
CC(C)CNC(=O)c1cc(-c2ccc(Cl)c(Cl)c2)on1,0.2,4,2%,11,5%,-6
O=C(c1cc2c(s1)CCCC2)N1CCN(c2ccccc2)CC1,-2.6,-2,22%,-24,-5%,-7
COc1ccc(/C=N/NC(=O)c2ccc(C)cc2)cc1CN1CCN(c2ccc(F)cc2)CC1,-2.8,4,-19%,1,4%,-26
Cc1ccccc1Cn1cc(NC(=O)c2cc(-c3ccco3)on2)cn1,3.0,21,24%,x,12%,-8
COc1ccc2cc3cc(C(=O)NCc4cccnc4)oc3nc2c1,-21,-16,6%[15.4 µM],-7,u,1
CCNC(=O)NC(=O)CSc1cccc(C(F)(F)F)c1,1.6,6,-14%,11,12%,0
CCCc1cc(=O)[nH]c(Nc2ccc(OC)c(Cl)c2)n1,-3.6,-7,-9%,-9,-25%,-12
COc1ccc(/C=N/NC(=O)c2ccco2)cc1OCc1ccccc1,5.1,-23,-9%[15.4 µM],-3,-20%,-5
CCOC(=O)C1CCN(S(=O)(=O)c2cc3c(cc2C)NC(=O)CO3)CC1,-5.3,3,6%,2,0%,-2
CN(c1ccc(C(=O)NC2CCCC2)cc1)S(=O)(=O)c1ccc(Cl)cc1,-1.4,-5,0%,-17,-15%,-14
O=C(CSc1ccc2nnc(-c3ccccn3)n2n1)NCc1ccc2c(c1)OCO2,-0.3,-24,u,-23,-4%,1

# 3 compounds already listed, arranged by SMILES length, lowest first.
SMILES,D2 agonist,Six1-Eya2 inh,gsp ag,CtBP-E1A blk,gsp antag,D2 PAM
O=C(Nc1ccccn1)c1csc2c1CCCC2,-2.8,11,5%,-1,-1%,-6
COc1ccc(/C=N/NC(=O)c2ccco2)cc1OCc1ccccc1,5.1,-23,-9%[15.4 µM],-3,-20%,-5
COCOCCn1cc(CN2CCS(=O)(=O)N(Cc3ccc(-c4cccc(CO)c4)cc3)C(C(C)C)C2=O)nn1 (configuration not stated),-8.0,2,20%,2,x,-1
